Screening results from PubChem BioAssay.
CtBP-E1A blk = blocks the CtBP interaction with E1A | activity change, % (concentration not given with the values) | AlphaScreen GST-E1A/His-CtBP binding, 1536-well; active compounds read low; control for the full effect not named in the record | AID 651724 | hit rate 0.49% among 340,000; in the data active means activity change below about -65%; inconclusive means about -30% to -65%; inactive means above about -30%; note: % is set by controls: 0 for no effect and ±100 for the full control effect
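Steps: dispense buffer (Tris pH 8.0, NaCl 300 mM, TCEP 1 mM, BSA, Tween 20); add 5X protein mix (GST-E1A, His-CtBP, 125 nM each); pin 23 nL compound; 2 h at 37 °C, dark; add 5X beads (50 ug/mL); 1 h; read.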
Six1-Eya2 inh = inhibitors of human Six1/Eya2 interaction; Q15475+O00167; hit rate 0.56% among 360,000; activity change, % (concentration not given with the values); AlphaScreen GST-Six1/His-Eya2 binding, biochemical; active compounds read low; control for the full effect not named in the record; AID 651725; in the data active = activity change below about -65%; inconclusive = about -30% to -65%; inactive = above about -30%; note: % is set by controls: 0 for no effect and ±100 for the full control effect
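GST-Six1 + His-Eya2 (5X stock: 250/500 nM); Tris pH 8.0, 300 mM NaCl, 0.05% BSA, 0.02% Tween 20; GSH donor/Ni acceptor beads; 1 h 37 °C dark; AlphaScreen readout.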
TRPML1 inh = human mucolipin-1 channel inhibition | TRPML1-inducible cells, Ca2+ dye fluorescence, FDSS; active compounds read low; inhibition of EC80 agonist-evoked calcium signal | activity change, negative = inhibition, % (test concentration not listed) | hit rate 0.02% among 390,000; in the data active means activity change below about -50%; inconclusive means about -30% to -50%; inactive means above about -30%;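 note: stimulus is agonist 54-4 at its EC80 concentration; % is set by controls: 0 for no effect and ±100 for the full control effect; compound concentration not given in the record; the text of the record puts the active cut at -80%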
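Tet-induced TRPML1-DL cells loaded with Ca8 no-wash calcium dye were read kinetically on FDSS. Compound addition was followed by EC80 agonist 54-4 (4 uM final); inhibition was read over 110 s.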
TRPV1 PAM = potentiators of human vanilloid receptor 1 (TRPV1) | Q8NER1 | TRPV1-expressing cells, Fluo-8 calcium influx, capsaicin EC20 potentiation; host cell line not named in the record; control for the full effect not named in the record | potentiation, % at 8.33 µM | hit rate 0.02% among 320,000 | AID 540277; active means potentiation above 80%; inconclusive means 30% to 80%; inactive means below 30%; note: 0% is about no effect
Target sequence (Q8NER1 whole entry, looked up): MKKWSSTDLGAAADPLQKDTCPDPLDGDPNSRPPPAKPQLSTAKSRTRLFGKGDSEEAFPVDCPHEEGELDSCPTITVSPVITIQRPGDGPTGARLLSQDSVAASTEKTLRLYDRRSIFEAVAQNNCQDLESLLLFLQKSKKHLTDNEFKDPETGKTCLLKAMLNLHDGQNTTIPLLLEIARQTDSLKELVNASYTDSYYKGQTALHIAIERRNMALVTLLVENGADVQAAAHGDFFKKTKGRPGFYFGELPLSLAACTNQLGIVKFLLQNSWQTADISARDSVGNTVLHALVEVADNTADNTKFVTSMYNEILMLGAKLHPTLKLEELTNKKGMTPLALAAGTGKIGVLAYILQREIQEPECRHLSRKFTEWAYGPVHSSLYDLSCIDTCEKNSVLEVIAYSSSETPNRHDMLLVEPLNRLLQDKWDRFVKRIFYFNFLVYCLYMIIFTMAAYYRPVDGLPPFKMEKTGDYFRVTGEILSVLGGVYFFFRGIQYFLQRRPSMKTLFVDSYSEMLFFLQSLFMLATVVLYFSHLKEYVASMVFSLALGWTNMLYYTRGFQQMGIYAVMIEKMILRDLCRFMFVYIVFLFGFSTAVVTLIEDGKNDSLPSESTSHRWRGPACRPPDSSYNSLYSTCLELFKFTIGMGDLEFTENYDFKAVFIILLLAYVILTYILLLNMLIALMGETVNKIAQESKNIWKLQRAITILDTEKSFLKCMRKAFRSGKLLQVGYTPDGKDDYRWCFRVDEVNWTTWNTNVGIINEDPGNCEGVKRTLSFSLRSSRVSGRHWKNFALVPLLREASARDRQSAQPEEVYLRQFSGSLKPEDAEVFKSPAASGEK
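Fluo-8 calcium influx in TRPV1-expressing cells, kinetic read (ex 480/em 520 nm). Compound added and read 3 min for agonist activity, followed by capsaicin at EC20 final and 2 min further read for enhancement.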
TRPML1 agonist = human mucolipin-1 channel agonism; TRPML1-expressing cells, Ca2+ dye fluorescence, FDSS; host cell line not named in the record; reference of the full effect not given here; activation, % (concentration not given with the values); hit rate 0.12% among 410,000; AID 624414; in the data active = activation above about 50%; inconclusive = about 30% to 50%; inactive = below about 30%; note: 0% is about no effect; the text of the record puts the active cut at 80%
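Cells: TRPML1-DL, 1X Tet inducer, ~16 h at 37 degrees C/5% CO2. Dye: ABD Ca8 no-wash + quencher, 45-90 min RT. Read: 10 s baseline, compound add, 110 s agonist phase; 54-4 EC80 (4uM final), 110 s antagonist phase.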
D2 potentiator = potentiates the human D2 dopamine receptor allosterically; P14416; DiscoveRx D2 beta-arrestin cells, luminescence, 90 min; 100% = 57 uM dopamine signal; AID 624464; potentiation, % (concentration not given with the values); hit rate 0.23% among 360,000; active = potentiation of 50% or more; inconclusive = 30% to 50%; inactive = 30% or less;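 note: compound concentration not given in the record; tested on top of an EC20 dose of dopamine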
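D2 cells co-treated with compound plus 50 nM dopamine (EC20) for 90 min at 37 deg C to detect potentiation. Beta-arrestin recruitment was read as enzyme-fragment luminescence after 1 h at ambient temperature. Full response was set by 57 uM dopamine.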
Active calls of the source: *; ? = inconclusive; nt = no result given.

mol,TRPV1 PAM,CtBP-E1A blk,Six1-Eya2 inh,D2 potentiator,TRPML1 agonist,TRPML1 inh
COc1ccc(-n2nnnc2SCC(=O)NNC(=O)c2ccc([N+](=O)[O-])cc2)cc1,-8,6,9,-15,0.9,1
COc1cccc(NC(=O)c2ccc3nc(C)sc3c2)c1,-9,nt,20,-5,nt,nt
CC(C)CNC(=O)c1ccccc1NC(=O)c1ccccc1N(C)S(=O)(=O)c1ccccc1,-28,0,-2,-3,0.4,-5
CCOC(=O)N1CCC(NC(=O)CSCc2nc(-c3sccc3C)oc2C)CC1,11,-8,20,-3,0.2,-11
COc1ccc(CC(=O)NC(c2ccccc2)c2ccc(C)cc2)c(OC)c1 (stereo not given),25,5,-8,-2,3.2,-16
Cn1c(CCNC(=O)c2ccco2)nc2cc(NC(=O)c3ccccc3Cl)ccc21,-4,38,18,2,2.9,9
CNC(=S)N(Cc1ccc(OC)cc1)C1CC(=O)N(c2ccc(Cl)cc2)C1=O (stereo not given),-3,nt,0,-22,2.4,9
COc1ccc(/C=C2\SC(=S)N(CCC(=O)NCCCn3ccnc3)C2=O)cc1,-1,nt,-17,-9,1.8,-6
O=C(NNC1=NCCCCC1)c1cccc([N+](=O)[O-])c1,-1,-1,-8,-8,-0.3,-9
N=C1SCC(=O)N1c1ncc(Cc2cccc(Cl)c2)s1,12,-11,-2,-7,0.2,8
C#CC(C)(CC)NC(=O)c1cc2nc(C3CC3)cc(C(F)(F)F)n2n1 (stereo not given),-7,5,5,-2,0.2,-16
Cc1ccc(Cl)cc1-c1ccc(C=Nc2ccc(N3CCOCC3)cc2)o1,-2,-9,-28,25,-0.4,-6
CCN(CC)S(=O)(=O)c1ccc(C(=O)NNC(=O)C2COc3ccccc3O2)cc1 (stereo not given),nt,-2,-1,-7,0.7,-7
COc1ccc(NC(=S)N2CCN(C(=O)c3ccco3)CC2)cc1,-5,-12,7,-5,0.2,-12
CC(C)(C)c1nnc2sc(SCC(=O)c3ccccc3)nn2c1=O,-8,4,-8,-18,-0.4,3
COc1cc(Cl)c(S(=O)(=O)N2CCCC2)cc1Cl,9,7,2,-4,-0.4,-7
COc1ccc(Cl)cc1NC(=O)CN(C)C(=O)CCc1nc2ccccc2c(=O)[nH]1,1,nt,-1,-17,-0.7,15
Cc1ccc(C)c(NCc2ccccc2CO)c1,4,-2,-7,-9,0.7,-9
CC1CCN(c2ccc(C(=O)NCCc3ccccc3)cn2)CC1,-19,0,-3,-17,-0.4,-5
CCOc1cc(/C=C2/N=C(c3ccc(C(C)(C)C)cc3)OC2=O)cc(Cl)c1OS(C)(=O)=O,5,-20,-14,-2,0.5,24
CN(C)S(=O)(=O)c1ccc(N2CCCC2)c(C(=O)NCc2ccccc2)c1,5,6,0,-8,-0.7,4
COc1ccc(C(C)=O)cc1CC(=O)Nc1ccc2c(c1)CCC2,20,-3,1,-4,0.8,8
CCOC(=O)C1(Cc2cccc(F)c2)CCN(Cc2ccc(COC)o2)CC1,-16,-5,-6,-23,2.5,25
Cc1cccc(C(=O)NCC(=O)OCC(=O)NC2CCCCCCC2)c1,1,10,13,-16,0.0,12
Cc1ccc(S(=O)(=O)N2CCOCC2)cc1NC(=O)CSc1nnc2cc(C)c3ccccc3n12,11,12,?,-23,-0.6,7

(further entries)
mol,TRPV1 PAM,CtBP-E1A blk,Six1-Eya2 inh,D2 potentiator,TRPML1 agonist,TRPML1 inh
COC(=O)c1ccc(C(=O)O)nc1,5,-6,?,0,-0.5,3
Clc1ccccc1Cn1nnc2c(NCCN3CCOCC3)ncnc21,-5,8,-1,-4,-0.3,19
O=C(CCNC(=O)c1ccccc1)Nc1cccnc1,-2,-1,14,-5,0.4,16
O=C(COC(=O)c1cccs1)c1ccccc1,-12,7,7,2,-0.4,-7
CCCCOc1ccccc1-c1cc(C(=O)O)[nH]n1,0,0,-4,-10,-0.4,12
N#Cc1c(-c2ccco2)ccn(Cc2cccc(F)c2)c1=O,24,5,-6,-20,-0.5,-11
CNS(=O)(=O)c1cc(C(=O)OCC(=O)NC2CCCc3ccccc32)ccc1Cl (stereo not given),-18,6,3,-18,-0.5,18
NCC(O)COc1ccc2c(c1)OCO2 (stereo not given),?,-13,-7,-23,0.0,8
Cc1nc(C(=O)NCCC(C)C)sc1C1(C)CC(c2ccccc2)=NO1 (stereo not given),-5,2,3,-37,-0.8,6
COC(=O)c1cnc(Nc2nc(CN)cs2)nc1C(F)(F)F,nt,?,?,0,-0.4,nt
CCc1nccn1S(=O)(=O)c1cccc([N+](=O)[O-])c1,4,-3,8,0,0.1,-21
O=C1N(S(=O)(=O)c2ccccc2F)C(=O)C2(CCCC2)N1S(=O)(=O)c1ccccc1F,1,3,11,-11,-0.2,9
CCCn1c(O)c2ccc(C(=O)N=NC(=O)c3cccnc3)cc2c1O,5,1,2,-12,-0.4,-9
COc1ccc(C(=O)Cc2ccccc2C(=O)O)cc1,nt,-2,2,-13,-0.2,6
Cc1ccc2[nH]c3c(c2c1)CC/C(=C/c1ccccc1)C3=O,-6,-2,-2,2,-0.5,-4
CCOc1ccc(NC(=O)CN2CCCC2c2cccs2)cc1S(=O)(=O)N1CCCCC1 (stereo not given),-1,7,-18,-25,1.6,87
CCCCN1CC(C)(C)[C@H](CC(=O)Nc2ccc(Br)cc2)C1=O,nt,2,1,4,2.0,3
CCOc1cc(/C=C2/C(=N)N3C(=NC2=O)SN=C3S(=O)(=O)CC)ccc1OC(=O)c1ccco1,9,nt,-2,-15,1.5,9
CSc1ccc(/C=N/NC(=O)c2ccc3nc[nH]c3c2)cc1,nt,-3,-8,-5,-0.8,-5
Cc1nc(NCc2cccnc2)c2c3c(sc2n1)CC(C)CC3 (stereo not given),5,nt,16,-20,-0.2,5
Cc1ccc(S(=O)(=O)N2CCN(C(=O)COc3ccc(NC(=O)c4ccco4)cc3)CC2)cc1,5,4,0,1,0.7,8
COc1ccc(S(=O)(=O)Nc2ccc(N3CCOCC3)cc2)cc1,17,-3,-15,-14,1.8,5
O=C(C1CC1)N1CCc2cc(S(=O)(=O)NC3CCN(Cc4ccccc4)CC3)ccc21,-6,2,-13,-16,-0.2,4
O=C(CN(C(=O)CCC(=O)Nc1ccccn1)c1ccccc1F)NCc1ccc2c(c1)OCO2,5,1,1,-4,-0.3,-1
c1ccc2c(Nc3nc4c(s3)CCCC4)cccc2c1,-4,-19,-18,2,1.2,37

Additional entries follow.
mol,TRPV1 PAM,CtBP-E1A blk,Six1-Eya2 inh,D2 potentiator,TRPML1 agonist,TRPML1 inh
COc1ccccc1/C=[N+](\[O-])C1SC(=S)N(C)C1(C)C (stereo not given),8,nt,2,-18,-0.1,1
Cc1ccc(S(=O)(=O)Nc2ccc(O)c3cccnc23)cc1,1,-29,-24,?,0.3,8
O=[N+]([O-])c1cccc(/C=C2\CCc3cnn(C4CCS(=O)(=O)C4)c32)c1 (stereo not given),nt,-1,-2,-6,-0.8,6
CN1CCN(C(=O)CN(c2ccccc2)S(=O)(=O)N(C)C)CC1,-4,1,13,-3,-0.2,14
Cc1ccc(C2=NS(=O)(=O)N(C)C(C(=O)Nc3cc(C)n(CC(=O)N4CCCCC4)n3)=C2)cc1,18,0,0,7,0.3,-6
COc1cccc(N=C(N)N=C(N)N)c1,?,-11,2,-5,3.5,12
CCOC(=O)c1cnc(-n2nc(C)cc2C)nc1NNc1nc(C)cc(C)n1,15,nt,-4,-4,0.7,38
CCOC(=O)c1cccc(-c2ccc(C=O)o2)c1,0,1,6,-13,1.4,-5
Cc1cccc2cc(-c3nc4c(C)cccn4c3NCc3ccco3)c(=O)[nH]c12,-7,-7,?,-13,-0.5,9
O=c1cc(CO)oc(C(Nc2cccc([N+](=O)[O-])c2)c2ccccn2)c1O (stereo not given),1,0,-4,-5,-0.4,-9
S=c1[nH]nc(-c2cc3ccccc3o2)n1Cc1ccccc1,3,-14,-14,-17,-0.1,-1
O=C(Nc1nc(=O)c2ccccc2s1)c1ccccc1,-14,-1,6,-13,-0.5,-2
CCCCCN1CC(O)=C(c2ccccc2)C1=N,-1,4,0,-12,-0.7,2
Cc1ccc(S(=O)(=O)/N=S(/c2ccccc2)C(C)C)cc1 (stereo not given),9,3,0,-5,-1.1,0
O=C(NCc1ccccc1Cl)c1ccc(S(=O)(=O)NCc2ccco2)cc1,10,2,0,-34,-0.1,-11
N#Cc1cccc(NC(=O)Cc2ccccc2)c1,1,5,0,-3,-0.3,18
COC(c1ccccc1)c1nc2ccccc2[nH]c1=O (stereo not given),?,-1,-3,-5,-1.3,0
CCS(=O)(=O)c1ccc(-c2cccc(NC(=O)c3ccco3)c2)nn1,-14,-6,-17,7,-0.3,-12
CCc1ccc(NC(=O)NCc2cccnc2)cc1,-26,0,1,-18,0.2,-5
O=C(Cc1c2ccccc2nc2ccccc12)c1ccccc1,2,14,2,-19,1.3,10
Cc1noc2c1C(c1ccc(N(C)C)cc1)C1=C(CC(C)(C)CC1=O)N2 (stereo not given),-19,-2,-4,1,-0.1,-7
COc1ccc(C(=O)NC(C(=O)N2CCN(C/C=C/c3ccccc3)CC2)C(C)C)cc1 (stereo not given),nt,-4,-18,-26,-1.1,7
CCOc1ccc2nc(SCC(=O)NC(=O)C(C)C)sc2c1,4,4,6,1,3.2,20
C[C@]12CCC3C(CC=C4C[C@@H](O)CC[C@@]43C)C1CCC2[C@]1(C)CCC(=O)O1 (stereo not given in full),-2,-3,16,9,0.7,6
CN(C(=O)COC(=O)c1ccc(Cl)nc1)C1CCS(=O)(=O)C1 (stereo not given),-4,-1,1,7,-0.5,39

The list continues:
mol,TRPV1 PAM,CtBP-E1A blk,Six1-Eya2 inh,D2 potentiator,TRPML1 agonist,TRPML1 inh
COc1ccc(C=C(C(C)=O)C(C)=O)cc1OC,-3,3,-2,-11,0.8,-11
O=C(COc1ccc2ccc(=O)oc2c1)Nc1ccc(N2CCOCC2)cc1,2,1,7,1,0.0,22
CC(=O)c1sc2c(c1OC(=O)c1ccc(Cl)cc1Cl)c(=O)n(-c1ccccc1)c(=S)n2-c1ccccc1,4,nt,-9,-10,0.9,7
COc1ccccc1C(=O)Nc1nnc(S(=O)(=O)N2CCC(C)CC2)s1,-6,-3,-2,-4,0.3,-2

5 neighbouring records out of the list so far, quoted:
mol,TRPV1 PAM,CtBP-E1A blk,Six1-Eya2 inh,D2 potentiator,TRPML1 agonist,TRPML1 inh
CN(C(=O)COC(=O)c1ccc(Cl)nc1)C1CCS(=O)(=O)C1 (stereo not given),-4,-1,1,7,-0.5,39
COc1ccc(C=C(C(C)=O)C(C)=O)cc1OC,-3,3,-2,-11,0.8,-11
O=C(COc1ccc2ccc(=O)oc2c1)Nc1ccc(N2CCOCC2)cc1,2,1,7,1,0.0,22
CC(=O)c1sc2c(c1OC(=O)c1ccc(Cl)cc1Cl)c(=O)n(-c1ccccc1)c(=S)n2-c1ccccc1,4,nt,-9,-10,0.9,7
COc1ccccc1C(=O)Nc1nnc(S(=O)(=O)N2CCC(C)CC2)s1,-6,-3,-2,-4,0.3,-2
